Menin-MLL FL inh – menin-MLL binding inhibition, fluorescein peptide; AID 1766; Fluorescence polarization, fluorescein-MLL peptide displacement from menin; FP activity change, % at 61.4 µM; 290,000 tested, under 10 active; inconclusive = falling polarisation curve, or a change in total fluorescence; inactive = total fluorescence flat and polarisation flat or rising; no compound was filed as active; the % refers to the polarisation; negative = inhibition;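 note: % of control where 0% means no effect; inhibitors lower the polarisation; unlabelled MLL peptide was the positive control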
TRPML1 blocker – human mucolipin-1 channel inhibition; Q9GZU1; TRPML1-inducible cells, Ca2+ dye fluorescence, FDSS; active compounds read low; inhibition of EC80 agonist-evoked calcium signal; activity change, negative = inhibition, % (test concentration not listed); 390,000 tested, 0.02% active; in the data active means activity change below about -50%; inconclusive means about -30% to -50%; inactive means above about -30%;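 note: stimulus is agonist 54-4 at its EC80 concentration; % is set by controls: 0 for no effect and ±100 for the full control effect; compound concentration not given in the record; the text of the record puts the active cut at -80%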
Target sequence (Q9GZU1 whole entry, looked up): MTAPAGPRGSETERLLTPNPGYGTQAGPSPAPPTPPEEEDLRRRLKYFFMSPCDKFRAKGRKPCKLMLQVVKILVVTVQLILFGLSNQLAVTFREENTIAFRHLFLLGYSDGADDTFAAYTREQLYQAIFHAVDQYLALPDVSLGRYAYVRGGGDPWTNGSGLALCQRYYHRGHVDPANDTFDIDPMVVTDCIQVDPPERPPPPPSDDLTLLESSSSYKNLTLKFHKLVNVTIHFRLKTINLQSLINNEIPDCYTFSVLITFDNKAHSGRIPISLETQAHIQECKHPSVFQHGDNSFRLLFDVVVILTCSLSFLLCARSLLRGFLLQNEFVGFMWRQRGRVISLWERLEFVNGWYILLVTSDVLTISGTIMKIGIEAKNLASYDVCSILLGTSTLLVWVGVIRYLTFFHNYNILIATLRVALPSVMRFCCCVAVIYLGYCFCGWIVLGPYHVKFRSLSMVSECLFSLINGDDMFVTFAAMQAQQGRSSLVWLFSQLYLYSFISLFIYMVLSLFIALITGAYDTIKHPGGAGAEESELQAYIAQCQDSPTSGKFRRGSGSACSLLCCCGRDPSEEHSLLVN
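Tet-induced TRPML1-DL cells loaded with Ca8 no-wash calcium dye were read kinetically on FDSS. Compound addition was followed by EC80 agonist 54-4 (4 uM final); inhibition was read over 110 s.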
gsp ag – agonists of gsp mutant (McCune-Albright syndrome). 340,000 tested, 0.13% active. gsp mutant cells, cAMP HTRF, 30 min; control for the full effect not named in the record. Potency, µM (doses to about 76.9 µM), for inactives: top-dose activation (cAMP increase), actives largely listed as activators. AID 624287; active = well fitted activation curve with a large enough effect; inconclusive = small, poorly fitted or top-dose-only effect, or another doubt; inactive = no such curve, though single readings can be large or run the other way; cell line not stated here;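 note: phosphodiesterase inhibitor Ro 20-1724 added with compounds to block cAMP breakdown; potency is the fitted concentration of half-maximal effect; nearly all actives have a fitted effect of over 60% in size; about a fifth of the inactives were tested at one dose only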
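Cells stably selected in G418 were plated at 2000/well, grown 16-24 hr, then given compounds in DMSO with the PDE inhibitor […] (300 uM solution added) for 30 min at 37C; cAMP was read by HTRF.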
TRPML1 ag – activates the human TRPML1 channel; TRPML1-expressing cells, Ca2+ dye fluorescence, FDSS; host cell line not named in the record; reference of the full effect not given here; 410,000 tested, 0.12% active; Q9GZU1; AID 624414; activation, % (test concentration not listed); in the data active = activation above about 50%; inconclusive = about 30% to 50%; inactive = below about 30%; note: 0% is about no effect; the text of the record puts the active cut at 80%
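Calcium fluorescence on an FDSS kinetic reader gave the read-out. Tet-induced TRPML1-DL cells were plated overnight, dye-loaded (Ca8 with quencher, 45-90 min, room temperature, dark), then read 110 s after compound addition, and again 110 s after 4uM final 54-4 (EC80).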
gsp antagonist – antagonizes gsp, the McCune-Albright syndrome mutation | Potency, µM (titrated, usually from 76.9 µM), for inactives: at the top dose activity change, negative = inhibition, usual class: inhibitors | gsp-mutant cells, cAMP HTRF, 30 min; control for the full effect not named in the record | AID 624288 | 340,000 tested, 0.4% active; active = falling curve of any shape with a large fitted effect; inconclusive = falling curve, mostly with a smaller effect; inactive = flat or rising curve; cell line not stated here;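 note: intracellular cAMP measured with PDE inhibitor Ro 20-1724 present during compound exposure; potency is the fitted concentration of half-maximal effect; % is set by controls: 0 for no effect and ±100 for the full control effect; nearly all actives have a fitted effect of over 65% in size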
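Measurement of cellular cAMP by homogeneous time-resolved fluorescence following a 30 min compound exposure at 37C. The PDE inhibitor […] was present throughout; the assay buffer was DPBS with 0.05% BSA and 0.005% Tween 20.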
ClpP mod – qHTS Assay for Activators of ClpP. purified B. subtilis ClpP, FRET peptide cleavage, 20 min. Potency, µM (doses to about 57.5 µM), for inactives: at the highest dose activity change, negative = active. ATP-dependent Clp protease proteolytic subunit (Bacillus subtilis (strain 168)), P80244. 340,000 tested, 1.9% active; active = well fitted falling curve with a large enough effect; inconclusive = small, poorly fitted or top-dose-only effect; inactive = no such curve, though single readings can be large or run the other way; note: potency is the fitted concentration of half-maximal effect; the source files actives as falling curves though it sought activators and does not explain the sign; nearly all actives have a fitted effect of over 65% in size; many hits overshoot -100%
Target sequence (P80244 whole entry, looked up): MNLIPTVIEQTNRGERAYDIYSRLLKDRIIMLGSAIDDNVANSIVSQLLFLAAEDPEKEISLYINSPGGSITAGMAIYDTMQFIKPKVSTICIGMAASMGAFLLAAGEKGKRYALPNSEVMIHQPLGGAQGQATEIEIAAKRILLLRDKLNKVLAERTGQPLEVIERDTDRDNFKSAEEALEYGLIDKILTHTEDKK
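FRET quenching reversal measured ClpP activation: 10 microg/mL B. subtilis ClpP at pH 8 with the FRET-FV decapeptide, read at 430 nm after 320 nm excitation. The 20-min minus 0-min signal was scaled between DMSO/no-enzyme wells and ADEP (5.8 microM final).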
Starred values were filed as active, the others as inactive; ? = inconclusive; . = no result given; & = joins results of further samples; [ ] = dose if it differs, or a comment.

SMILES	Menin-MLL FL inh	TRPML1 blocker	gsp ag	TRPML1 ag	gsp antagonist	ClpP mod
O=C(Oc1ccc(N(Cc2cccs2)C2=NS(=O)(=O)c3ccccc32)cc1)c1ccccc1Cl	-2.0	11.8	10.7%	0.8	10.7%	-4.0%
Cc1nnc2ccc(N3CCN(C(=O)c4ccccc4)CC3)nn12	2.1	-2.7	?	-0.5	4.3%	0.1%
O=C1C(=C2SCCCS2)CC/C1=C\c1ccc(F)cc1	2.0	-11.6	-19.4%	?	5.6%	1.4%
c1ccc(-n2cnc3cc(NCc4ccccn4)ccc32)cc1	-1.6	2.2	-28.8%	0.6	0.4%	-3.4%
COc1ccc(NC(=O)c2cccc(N3C(=O)NC4CC3(C)Oc3ccccc34)c2)cc1 (stereo unspecified)	-6.3	-4.9	-30.2%[inhibitor]	1.3	-24.3%	0.9%
CCCCn1c(SCC(=O)N2c3ccccc3Sc3ccccc32)nc2c1c(=O)n(C)c(=O)n2C	6.4	26.6	-5.0%	1.4	10.0%	1.6%
CC(=O)NCC(=O)N(C)C(C(=O)Nc1ccc2c(c1)OCCO2)c1ccccc1 (stereo unspecified)	2.8	4.4	10.5%[15.4 µM]	0.4	8.3%	0.5%
Cc1[nH]c2ccccc2c1C1(O)C(=O)N(Cc2ccccc2)c2ccc(Br)cc21 (stereo unspecified)	.	-9.5	.	-1.5	.	0.9%
CC1CCN(C(c2nnnn2CCc2ccccc2)C(C)C)CC1 (stereo unspecified)	-0.1	31.9	22.0%	1.1	0.0%	-0.8%
O=C(NCc1cccc(CNC(=O)Nc2cccc(O)c2)c1)Nc1cccc(O)c1	-11.6	-3.1	9.3%	-0.4	6.4%	-5.3%
O=C(C[C@H]1C[C@H](C(=O)N2CCCCC2)[C@@]2(CCc3ccccc3)c3[nH]c4ccc(Cl)cc4c3CCN2C1=O)NCCc1ccccn1	.	6.5	.	-0.1	-20.6%	-1.5%
CC(C)C(=O)N1CCN(c2ccc(NC(=S)NC(=O)c3cc4ccccc4o3)cc2)CC1	.	0.1	-2.3%[15.4 µM]	0.1	-12.6%	79.1%
COCCCN(CCCN)Cc1ccco1	-0.9	5.4	-17.7%	-0.8	3.7%	0.9%
CC1(NC(=O)Nc2cccc(Br)c2)CCS(=O)(=O)C1 (stereo unspecified)	.	-3.4	1.8%[15.4 µM]	0.0	8.8%	1.3%
N#CC(c1ccccn1)c1ncc(C(F)(F)F)cc1Cl (stereo unspecified)	-2.4	5.6	13.1%	-0.1	5.5%	.
O=C(c1cc(COc2c(F)cccc2F)on1)N1C[C@H]2CC[C@H]1C2	.	-8.7	4.5%	1.5	?	2.0%
Cn1ccc(C(=O)NC(=S)N2CCSCC2)n1	-0.1	-16.0	-5.1%	0.9	-5.7%	.
Cc1ccn2c(=O)nc(SCC(=O)N3CCCc4ccccc43)nc2c1	.	-10.0	?	-0.4	5.9%	1.3%
COc1cc(C)c(Cc2cnc(N)nc2N)cc1OC	3.7&-0.7	.	.	0.1	.	-2.6%
COC(=O)c1ccc(C(=O)OC)c(NC(=O)COC(=O)C2CC2C)c1 (stereo unspecified)	1.5	-11.5	-23.8%	-0.7	-11.2%	-21.7%
COc1ccc(C(=O)c2oc3ccc(OC)cc3c2NC(C)=O)cc1	-2.4	16.6	5.5%[15.4 µM]	1.5	23.4%	.
O=C(N/N=C(/CC(=O)c1cccs1)C(F)(F)F)c1ccc(O)cc1	22.5	2.5	-2.7%[15.4 µM]	0.8	-30.5%	1.1%
CCC(CC)NC(=O)CN(c1ccccc1OC)S(=O)(=O)c1cccs1	0.7	6.0	-19.1%	0.8	7.2%	1.9%
Cc1nn(C(C)C(=O)NC2CC2)c(=O)c2nn(-c3ccccc3)c(C)c12 (stereo unspecified)	.	-10.3	?	-0.5	7.5%	-7.1%
COc1ccc2c3c([nH]c2c1)C1(NCC3)C(=O)Nc2ccccc21 (stereo unspecified)	-1.3	-10.6	1.8%[15.4 µM]	-0.1	-14.6%	.
CCCn1cc(S(=O)(=O)c2ccc(Cl)cc2)c(=O)c2cc(OC)ccc21	.	16.9	?	1.5	2.7%	-14.5%
CC1=NNC(=O)c2ccccc2O1	-0.2	-4.5	-20.4%	-0.2	1.3%	.
c1ccc(-c2nn[nH]n2)cc1	2.2	-7.0	-2.6%[15.4 µM]	-0.1	1.8%	0.0%
CCOC(=O)c1c(C)[nH]c(C(=O)N/N=C\c2ccccc2Cl)c1C	-3.4	-8.8	-7.0%	2.1	-13.8%	-0.8%
O=C(CCn1c(=O)oc2ccc(Cl)cc21)N1CCN(c2ccccc2)CC1	1.1	0.6	-3.4%	3.4	5.2%	-13.0%
CSCCC(NC(=O)c1ccc(Cl)cc1Cl)C(=O)NCC(c1cccs1)N(C)C (stereo unspecified)	.	-5.4	-28.0%	0.0	-4.4%	0.1%
CC(C(=O)NCc1ccco1)n1ccc2cc(S(=O)(=O)N3CCCCC3)ccc21 (stereo unspecified)	-2.4	1.4	7.8%	-0.2	-5.1%	-1.4%
Oc1ccc(Cl)cc1C1=NNC(c2cccs2)C1 (stereo unspecified)	?	.	37.6%	.	-1.6%	-21.5%
Cc1ccc(C(C(=O)NCC2CCCO2)N(C(=O)c2snc(C(N)=O)c2N)c2ccc(C)c(C)c2)o1 (stereo unspecified)	3.8	-15.7	-3.0%[15.4 µM]	-1.4	-25.3%	0.9%
CCCCCSc1nnc2c(n1)OC(c1ccc(C)s1)N(C(C)=O)c1ccccc1-2 (stereo unspecified)	.	10.9	.	1.3	.	-2.9%
Cc1ccc(Nc2cc(C)nc3nc(C)nn23)cc1	8.8	5.1	1.3%	1.6	6.1%	-2.2%
Cc1ccc(C(=O)Cc2cc3ccccc3oc2=O)c(C)c1	7.4	-13.9	-7.2%	2.0	12.1%	-3.5%
CC(C)Oc1cccc(C2CC(=O)Nc3cc4c(cc32)OCO4)c1 (stereo unspecified)	.	-6.1	.	13.7	.	-5.3%
N#C/C(=N/Nc1ccccc1F)C(=N)N1CCOCC1	1.1	-14.8	-28.9%	0.2	5.3%	-0.3%
O=C(Nc1ccc(Cl)cc1C(=O)NCc1cccnc1)c1ccco1	-0.1	-20.1	7.6%	-0.1	4.6%	-18.4%
COC(=O)Cc1c(C)c2ccc(OCC(=O)N3CCCC3)c(C)c2oc1=O	.	2.5	-1.2%	0.0	-15.6%	?
CCNC(=O)C1(C)CCN(C(=O)c2ccc(OC)c(OC)c2)C1 (stereo unspecified)	.	73.0	.	-0.5	.	-0.3%
CCCc1cc(NCCCn2ccnc2)n2nc(C)c(-c3ccccc3)c2n1	5.8	13.3	-5.8%[15.4 µM]	2.3	-25.7%	.
O=C(CCCn1c(=S)[nH]c2ccsc2c1=O)NCCc1ccccc1	.	-1.3	?	-1.1	-2.9%	-3.7%
COc1ccc(OC)c(NC(=O)c2ccno2)c1	5.4	17.9	-4.4%	-0.6	-3.2%	.
COc1ccc(-n2nc(C(=O)NCC(=O)NC3CCCC(C)C3C)c3ccccc3c2=O)c(OC)c1 (stereo unspecified)	-0.3	3.7	-11.1%[15.4 µM]	-1.2	11.1%	2.8%
O=C(C1=C(O)C(=O)N(Cc2ccco2)C1c1cccc(Cl)c1)c1ccco1 (stereo unspecified)	.	5.3	?	0.8	-6.2%	-1.9%
CCC(C)NCCOc1ccc(C(C)(C)c2ccccc2)cc1 (stereo unspecified)	7.7	15.1	-13.7%[15.4 µM]	-0.3	19.9%	.
COc1ccc(-c2cc(C(=O)N3CCCCC3)no2)cc1OC	0.1	-13.6	-2.4%	0.4	13.8%	-1.3%
Cc1ccc(Cn2ccc(O)c(Cc3ccccc3)c2=O)cc1	-6.6	-1.4	-14.4%	2.2	-0.1%	2.9%
CCCCN(C(=O)CNC(=O)c1cccs1)C(C(=O)NC1CCCC1)c1ccncc1 (stereo unspecified)	2.3	5.9	-37.9%[inhibitor]	-0.8	3.3%	.
Cc1cccc(CCNC(=O)c2cccc(N3CCCC3=O)c2)c1	.	-5.5	2.2%	1.0	-3.6%	-3.0%
COc1ccccc1/C=N/N(C(C)=O)c1nc(-c2ccc(F)cc2)cs1	-1.2	-10.1	-46.3%[inhibitor]	0.8	12.2%	-1.5%
CC(=O)Nc1ccc(S(=O)(=O)Nc2nc(CN3CCOCC3)nc3sc4c(c23)CCCC4)cc1	6.2	3.3	-15.6%	0.8	-14.0%	?
COc1ccc(CC(=O)N[C@@H]2c3ccccc3CC[C@@H]2OCc2ccccc2)cc1	.	-2.3	.	3.9	-10.5%	0.0%
O=C(NNc1c2ccccc2nc2ccccc12)C12CC3CC(CC(C3)C1)C2	5.4	-9.2	-16.0%[15.4 µM]	0.4	9.0%	.
C=CCC[C@@H](Cc1ccc(F)cc1)C(=O)OC[C@H](C)NC(=O)[C@@H](CC=C)CC(=O)N[C@@H](CO)Cc1ccccc1	.	-1.9	7.7%	0.1	-6.7%	-3.0%
COC(=O)C(Cc1ccccc1)NC(=O)c1ccc(NS(=O)(=O)c2ccc3[nH]c(=O)[nH]c3c2)cc1 (stereo unspecified)	.	-14.5	-22.6%	3.0	9.9%	-1.3%
Cc1cc(C)c2nc(N3CCCC3)c(C#N)cc2c1	2.4	-7.4	-11.3%	0.9	6.3%	-5.1%
COc1ccc(CCC(=O)N(C)CC(=O)Nc2ccc(Cl)c(C(F)(F)F)c2)cc1	.	10.1	-4.9%[15.4 µM]	-0.3	?	-3.7%
Next section
SMILES	Menin-MLL FL inh	TRPML1 blocker	gsp ag	TRPML1 ag	gsp antagonist	ClpP mod
O=C(Nc1c(Cl)ccc2nsnc12)c1cccnc1	.	-13.5	-10.9%	-0.5	-7.7%	-0.7%
Cc1oc(-c2cccc(Cl)c2)nc1CSCC(=O)NCc1ccccc1Cl	.	48.9	.	4.0	.	-16.7%
COc1ccc(/C=N/Nc2nc(Nc3ccccc3)nc(N3CCCCC3)n2)c(OC)c1	8.8	-7.5	3.6%	0.7	-12.7%	-7.9%
CC(=O)Nc1cccc(NC(=S)Nc2ccc(F)cc2F)c1	3.2	16.4	-3.9%	-0.1	1.4%	.
